Screens: PubChem, ICCB-Longwood Screening Facility, Harvard Medical School
GIV-Gai inh: inhibitors of GIV peptide binding to Galpha-i3, primary screen, biochemical, fluorescence polarization, FITC-GIV GBA peptide, rat Galphai3; percent of control (FP), % (concentration not given with the values); 90 min; stronger effect = lower value; scaled: aluminum fluoride 0%, vehicle 100%; 210,000 tested, 0.42% active; Guanine nucleotide-binding protein G(i) subunit alpha-3 (Rattus norvegicus), P08753;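 active = replicate mean at 85% of control or lower, very high polarization wells dropped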;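 note: wells of about 15 µL received 100 nL stock; the first replicate is given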
Target sequence (P08753 whole entry, looked up): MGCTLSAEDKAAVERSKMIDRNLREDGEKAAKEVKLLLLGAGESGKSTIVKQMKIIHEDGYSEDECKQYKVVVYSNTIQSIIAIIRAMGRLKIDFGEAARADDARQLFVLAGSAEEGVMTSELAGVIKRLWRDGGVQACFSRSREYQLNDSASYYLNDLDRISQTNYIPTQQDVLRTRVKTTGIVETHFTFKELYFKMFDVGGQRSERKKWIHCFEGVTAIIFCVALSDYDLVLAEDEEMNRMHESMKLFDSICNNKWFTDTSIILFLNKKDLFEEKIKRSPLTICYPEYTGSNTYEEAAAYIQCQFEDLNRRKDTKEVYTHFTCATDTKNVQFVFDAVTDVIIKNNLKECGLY
Sa growth 42C: S. aureus growth inhibition at 42 and 30 °C, primary screen, LtaS inhibitor project, RN4220, two temperatures; OD600, 20 h, 42 °C; stronger effect = lower value; relative growth, % (concentration not given with the values); 170,000 tested, 0.53% active; AID 720641, 2013;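 active = growth at 42 °C up to 50% and 20 or more points under that at 30 °C, or under 10% at both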;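 note: 300 nL library stock went into each well; scaled to the means of positive and negative controls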
HCMV NEC inh: inhibitors of HCMV UL50-UL53 interaction, biochemical, HTRF. HCMV UL50-UL53 nuclear egress complex (human cytomegalovirus). normalized percent inhibition. inhibition, % (no concentration beside the values). 190,000 tested, 0.15% active;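 active = both replicates at 50% or more, plus weaker picks with an unusually low signal ratio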;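 note: stock transfer was 100 nL into about 20 µL; 0% = negative control wells and 100% = wells with untagged competitor protein; inactives centre near -12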
Sa growth 42C second temp: second read-out of Sa growth 42C, no call of its own (marks repeat the call); relative growth, %; measured here: growth at 30 °C;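 optical density after 20 h as mean of two plates; 100% = untreated growth and lower means inhibition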
* hit, by the source's call; & = joins results of further samples.

`CCCN1C(C(=O)c2ccccc2)=C(OC(=O)COc2ccc(C)cc2)c2ccccc2S1(=O)=O` gave GIV-Gai inh 105.1, Sa growth 42C 69.9, HCMV NEC inh -27.9 and Sa growth 42C second temp 65.6.
CCN1CCN(c2nc(-c3ccccc3)no2)CC1 was read as GIV-Gai inh 106.6 and HCMV NEC inh -8.7.
O=C(c1ccc(Cl)cc1Cl)n1c(=O)oc2cc(S(=O)(=O)N3CCCCC3)ccc21 was read as Sa growth 42C 49.4, HCMV NEC inh -11.3 and Sa growth 42C second temp 69.5.
N#Cc1c(-c2ccccc2)c(-c2ccccc2)n[nH]c1=S was read as GIV-Gai inh 105.5, Sa growth 42C 93.9, HCMV NEC inh -56.3 and Sa growth 42C second temp 86.8.
`O=C(O)/C=C/c1ccc(O)c(O)c1` gave GIV-Gai inh 100.7 and HCMV NEC inh -3.7&-3.7&-52.8.
`CNC(=O)C1CCC(Cn2c(=O)c3sccc3n(CC(=O)NCc3ccc(F)cc3)c2=O)CC1` (stereo not drawn) gave GIV-Gai inh 96.7, Sa growth 42C 106.7 and Sa growth 42C second temp 68.8.
For Cc1ccc(-c2noc(CSc3nnc(Cc4ccccc4)n3-c3cccc(C)c3)n2)cc1 the results were GIV-Gai inh 105.0, Sa growth 42C 98.1, HCMV NEC inh -14.3 and Sa growth 42C second temp 89.5.
`COc1ccccc1CNS(=O)(=O)c1ccc(N2CCCCS2(=O)=O)cc1` gave GIV-Gai inh 100.4, Sa growth 42C 103.2 and Sa growth 42C second temp 77.1.
For CC1CCCCN1S(=O)(=O)c1ccc2c(c1)CCC(=O)N2CC(=O)NCc1ccc2c(c1)OCO2 (stereo not drawn) the results were GIV-Gai inh 106.0 and HCMV NEC inh -23.9.
`O=C(CSCc1ccc(F)cc1)N1CCN(c2ccc(Cl)cc2)CC1` gave GIV-Gai inh 100.1, Sa growth 42C 88.3 and Sa growth 42C second temp 49.0.
For CCN(CCCNC(=O)c1cc2cc3ccc(C)cc3nc2s1)c1ccccc1 the results were GIV-Gai inh 108.2, Sa growth 42C 98.8, HCMV NEC inh -16.9 and Sa growth 42C second temp 95.2.
Screening COc1cccc(OCCn2c(-c3ccc(Br)cc3)nc3ccccc3c2=O)c1 returned GIV-Gai inh 106.8, Sa growth 42C 105.3, HCMV NEC inh -5.5 and Sa growth 42C second temp 103.4.
For COC(=O)c1ccccc1NC(=O)c1ccc2c(c1)CCN2S(=O)(=O)c1ccc(C)cc1 the results were GIV-Gai inh 101.5, Sa growth 42C 96.6, HCMV NEC inh -25.9 and Sa growth 42C second temp 82.4.
For COc1ccc(NC(=S)NCCN(C2CCCCC2)C2CCCC2)cc1 the results were GIV-Gai inh 101.8, Sa growth 42C 118.6 and Sa growth 42C second temp 87.5.
Screening COc1ccccc1N1CCN(CCCCOc2ccc(F)cc2)CC1 returned GIV-Gai inh 104.8, Sa growth 42C 80.4, HCMV NEC inh -5.3 and Sa growth 42C second temp 45.1.
CCN(c1ccccc1)S(=O)(=O)c1cccc(C(=O)O)c1 was read as Sa growth 42C 88.8, HCMV NEC inh -25.0 and Sa growth 42C second temp 93.9.
`O=C(CSc1nc(-c2ccccc2)nc2c1Cc1ccccc1O2)Nc1ccc2c(c1)OCCO2` gave GIV-Gai inh 103.8 and HCMV NEC inh -31.8.
For CCn1cnc2c(=O)[nH][nH]c(=O)c21 the results were Sa growth 42C 84.1, HCMV NEC inh 5.7 and Sa growth 42C second temp 86.0.
O=C(c1ccc(=O)[nH]c1)N1CCCCCC1 was read as Sa growth 42C 101.8, HCMV NEC inh 1.0 and Sa growth 42C second temp 90.2.
Screening CC(C)NC(=O)CCCCn1c(=O)c2ccccc2n(CC(=O)NCc2ccccc2Cl)c1=O returned GIV-Gai inh 108.4 and HCMV NEC inh -7.7.

Ordered by length of the SMILES (falling): part of the list above.
For COC(=O)c1ccccc1NC(=O)c1ccc2c(c1)CCN2S(=O)(=O)c1ccc(C)cc1 the results were GIV-Gai inh 101.5, Sa growth 42C 96.6, HCMV NEC inh -25.9 and Sa growth 42C second temp 82.4.
O=C(c1ccc(Cl)cc1Cl)n1c(=O)oc2cc(S(=O)(=O)N3CCCCC3)ccc21 was read as Sa growth 42C 49.4, HCMV NEC inh -11.3 and Sa growth 42C second temp 69.5.
For CCN(CCCNC(=O)c1cc2cc3ccc(C)cc3nc2s1)c1ccccc1 the results were GIV-Gai inh 108.2, Sa growth 42C 98.8, HCMV NEC inh -16.9 and Sa growth 42C second temp 95.2.
O=C(c1ccc(=O)[nH]c1)N1CCCCCC1 was read as Sa growth 42C 101.8, HCMV NEC inh 1.0 and Sa growth 42C second temp 90.2.

Next part.
For O=C(NC1CCCCC1)N1CCc2cc(S(=O)(=O)N3CCOCC3)ccc21 the results were GIV-Gai inh 107.6 and HCMV NEC inh 16.7.
O=C(CCN1C(=O)/C(=C/c2ccc3c(c2)OCO3)SC1=S)Nc1nc2ccccc2s1 was read as GIV-Gai inh 72.0* and HCMV NEC inh -19.8.
`COc1cccc(C(=O)c2cc3ccc(O)cc3oc2=O)c1` gave GIV-Gai inh 120.0, Sa growth 42C 107.2, HCMV NEC inh -70.1 and Sa growth 42C second temp 66.0.
For CCOC(=O)c1c(S(=O)(=O)N2CCCC(C(=O)Nc3cccc(C)n3)C2)c(C)n(C)c1C (stereo not drawn) the results were GIV-Gai inh 102.5, Sa growth 42C 128.6 and Sa growth 42C second temp 85.8.
For CCOc1ccccc1N(C)C(=O)c1nn(-c2ccc(C)cc2)c(=O)c2c1c1ccccc1n2C the results were GIV-Gai inh 101.8, Sa growth 42C 99.1, HCMV NEC inh 12.8 and Sa growth 42C second temp 97.0.
C=CCn1c(C)cc(C(C)(C)c2cc(C)n(CC=C)c2C)c1C was read as Sa growth 42C 56.1, HCMV NEC inh -19.2 and Sa growth 42C second temp 26.4.
For CN(C)c1ccc(C(CNC(=O)c2cccc(Br)c2)N(C)C)cc1 (stereo not drawn) the results were GIV-Gai inh 106.0 and HCMV NEC inh -3.2.
For O=C(CSc1ccccc1F)NCC(c1cccs1)N1CCOCC1 (stereo not drawn) the results were Sa growth 42C 84.3, HCMV NEC inh -9.3 and Sa growth 42C second temp 87.1.
`S=c1[nH]nc(CN2CCCC2)o1` gave Sa growth 42C 89.2, HCMV NEC inh 10.0 and Sa growth 42C second temp 98.8.
COCCN1C(=O)c2ccccc2C(C(=O)NCCN2CCOCC2)C1c1cn(C)c2ccccc12 (stereo not drawn) was read as GIV-Gai inh 96.7, Sa growth 42C 96.6 and Sa growth 42C second temp 83.0.
For COc1c(Cl)cc(Cl)cc1/C=C(\C#N)c1nc(-c2ccc(Cl)cc2)cs1 the results were GIV-Gai inh 110.3, Sa growth 42C 111.9, HCMV NEC inh 3.3 and Sa growth 42C second temp 105.6.
For CCN(CC)C(=O)Oc1ccc(Cl)c2cccnc12 the results were GIV-Gai inh 101.2, Sa growth 42C 98.7, HCMV NEC inh -32.1 and Sa growth 42C second temp 79.1.
For CCOC(=O)c1nc2ccccc2n(C)c1=O the results were GIV-Gai inh 105.0 and HCMV NEC inh -156.8.
For O=C(Nc1ccc(Cl)cc1)Oc1ccccc1N1CCSCC1 the results were GIV-Gai inh 111.7, Sa growth 42C 117.2, HCMV NEC inh 0.0 and Sa growth 42C second temp 62.1.
Screening O=C(NCCC1=CCCCC1)c1nc(Nc2ccccc2)c2ccccc2n1 returned GIV-Gai inh 103.3 and HCMV NEC inh 6.0.
CCN1CCN(C(c2ccc(OC)cc2)c2c(O)cc(C)n(CCOC)c2=O)CC1 (stereo not drawn) was read as GIV-Gai inh 99.5, Sa growth 42C 73.6 and Sa growth 42C second temp 85.1.
O=C(COC(=O)CN1C(=O)C2CC=CCC2C1=O)Nc1ccc2c(c1)OCO2 (stereo not drawn) was read as Sa growth 42C 80.5, HCMV NEC inh -25.4 and Sa growth 42C second temp 89.8.
For CCn1c(C)c(C)c2cc(C(=O)NCc3ccc(OC(C)C)cc3)ccc21 the results were GIV-Gai inh 101.0, Sa growth 42C 102.7 and Sa growth 42C second temp 92.8.
Screening N#C/C(=C\c1ccc2c(c1)OCCO2)C(N)=S returned Sa growth 42C 88.4, HCMV NEC inh -78.3 and Sa growth 42C second temp 73.5.
`Cc1ccccc1C(=O)OCC(=O)c1sc2ccccc2c1C` gave GIV-Gai inh 100.7, Sa growth 42C 101.5, HCMV NEC inh -13.2 and Sa growth 42C second temp 87.6.
Screening CC(C)c1ccc(OC(=O)c2cc(-c3ccc(Cl)cc3)on2)cc1 returned GIV-Gai inh 101.5, Sa growth 42C 92.6, HCMV NEC inh -4.0 and Sa growth 42C second temp 97.0.
For COc1ccc(OC)c(NC(=O)Cn2cnc3c2c(=O)n(C)c(=O)n3C)c1 the results were GIV-Gai inh 95.3 and HCMV NEC inh -4.9.
`CCOc1cccc(-c2noc(Cn3cnc4c(nnn4-c4ccccc4OC)c3=O)n2)c1` gave GIV-Gai inh 98.6 and HCMV NEC inh -23.5.
For CCOc1ccccc1NC(=O)COC the results were GIV-Gai inh 102.0, Sa growth 42C 80.0, HCMV NEC inh -2.8 and Sa growth 42C second temp 105.4.
O=C1ON(c2ccccc2)C(c2ccc3c(c2)OCO3)N1c1ccccc1 (stereo not drawn) was read as GIV-Gai inh 104.6, Sa growth 42C 74.1, HCMV NEC inh -25.7 and Sa growth 42C second temp 50.3.
For COc1cccc(C(=O)Nc2ccc3nc(SCc4ccc(C)cc4)sc3c2)c1 the results were GIV-Gai inh 103.5, Sa growth 42C 112.8, HCMV NEC inh -11.7 and Sa growth 42C second temp 77.9.
Screening Cc1cc(C)nc(NC(c2cccc(F)c2)c2cc(C)sc2NC(=O)c2ccccc2)n1 (stereo not drawn) returned GIV-Gai inh 68.6* and HCMV NEC inh 0.5.
Screening Cc1ccc(S(=O)(=O)NNC(=S)NCC2CCCO2)cc1 (stereo not drawn) returned GIV-Gai inh 101.7, Sa growth 42C 112.2, HCMV NEC inh -15.6 and Sa growth 42C second temp 86.5.
Screening NC(=O)CCSCc1ccc(Cl)c(Cl)c1 returned GIV-Gai inh 97.8, Sa growth 42C 98.8, HCMV NEC inh -25.2 and Sa growth 42C second temp 82.3.
`Cn1cccc1/C=C1\C(=O)NC(=S)N(c2ccccc2)C1=O` gave GIV-Gai inh 80.1*, Sa growth 42C 105.9 and Sa growth 42C second temp 83.9.
Screening Cc1ccc(NC(=O)CN(c2nccs2)S(=O)(=O)c2ccccc2)cc1 returned Sa growth 42C 88.6, HCMV NEC inh -43.8 and Sa growth 42C second temp 90.6.
`O=C(Nc1ccc(F)cc1)C1CCCN(c2nc3cccnc3s2)C1` (stereo not drawn) gave GIV-Gai inh 103.7 and HCMV NEC inh -13.4.
Screening CCN(CC)CCN(C(=O)c1ccco1)c1nc2c(C)c(C)ccc2s1 returned GIV-Gai inh 105.5, Sa growth 42C 103.2 and Sa growth 42C second temp 83.7.
O=C(Cn1ncn2c(cc3sccc32)c1=O)NC1CCCc2ccccc21 (stereo not drawn) was read as GIV-Gai inh 102.8&104.0, Sa growth 42C 100.5, HCMV NEC inh -17.3&-22.3 and Sa growth 42C second temp 86.7.
CNC(=O)CNC(=O)Nc1ccccc1OC was read as Sa growth 42C 100.7, HCMV NEC inh 0.5 and Sa growth 42C second temp 90.0.
Screening CCCc1cc(=O)n2c3c(sc2n1)C(=O)N(Cc1ccccc1)C3=O returned Sa growth 42C 106.5, HCMV NEC inh 6.1 and Sa growth 42C second temp 95.8.
Screening Cc1cccc(NC(=O)CSc2cn(CC(=O)N3CCCCCC3)c3ccccc23)c1 returned GIV-Gai inh 108.8, Sa growth 42C 84.3 and Sa growth 42C second temp 76.0.
For Cc1ccc(-c2csc(=Nc3ccccc3)n2Cc2ccc3c(c2)OCO3)cc1 the results were GIV-Gai inh 101.5, Sa growth 42C 100.4, HCMV NEC inh 1.2 and Sa growth 42C second temp 88.3.
CCN(CC)CCNC(=O)c1ccc(-c2nc(CN3CCc4ccccc43)c(C)o2)cc1 was read as GIV-Gai inh 103.7, Sa growth 42C 109.8 and Sa growth 42C second temp 91.1.
For CC(C)(C)c1ccc(C(=O)CC(NCc2ccccc2)C(=O)O)cc1 (stereo not drawn) the results were Sa growth 42C 103.6, HCMV NEC inh 0.2 and Sa growth 42C second temp 84.4.
COCCN1C(=O)/C(=C\N2CCN(c3ccc(OC)cc3)CC2)C(=O)NC1=S was read as Sa growth 42C 85.9, HCMV NEC inh -3.1 and Sa growth 42C second temp 94.5.
`Cc1ccc(S(=O)(=O)N2C(=O)CCC2C(=O)NC2CCC(C)CC2)cc1` (stereo not drawn) gave GIV-Gai inh 99.8 and HCMV NEC inh -0.3.
For CC1Cc2ccccc2N1C(=O)Cn1c(=O)cc(O)c2ccccc21 (stereo not drawn) the results were Sa growth 42C 97.7, HCMV NEC inh -21.2 and Sa growth 42C second temp 88.7.
Screening N#CCCn1[nH]c(=O)ccc1=O returned GIV-Gai inh 103.4, Sa growth 42C 91.1, HCMV NEC inh -30.2 and Sa growth 42C second temp 80.4.
For COc1ccc(C2C(C(=O)O)CCC(=O)N2c2ccc(OC)cc2)cc1 (stereo not drawn) the results were GIV-Gai inh 91.8, Sa growth 42C 105.9, HCMV NEC inh -17.1 and Sa growth 42C second temp 88.6.
Screening COc1ccc2oc(=O)c(NC(=O)C3CCCCC3)cc2c1 returned GIV-Gai inh 100.7, Sa growth 42C 90.3, HCMV NEC inh -20.4 and Sa growth 42C second temp 85.2.
